# Bioassay records as filed in PubChem.
# TRPML1 ag: human mucolipin-1 channel agonism; Q9GZU1; TRPML1-expressing cells, Ca2+ dye fluorescence, FDSS; host cell line not named in the record; reference of the full effect not given here; activation, % (no concentration beside the values); 410,000 tested, 0.12% active; in the data active = activation above about 50%; inconclusive = about 30% to 50%; inactive = below about 30%; note: 0% is about no effect; the text of the record puts the active cut at 80%
#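 Agonist activity was taken from a 110 s kinetic Ca2+ dye read on the FDSS after pinning compounds onto TRPML1-DL cells. The cells were seeded at 1,500/well with Tet inducer, incubated about 16 h, then dye-loaded at room temperature.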
# ClpP mod: qHTS Assay for Activators of ClpP; ATP-dependent Clp protease proteolytic subunit (Bacillus subtilis (strain 168)), P80244; purified B. subtilis ClpP, FRET peptide cleavage, 20 min; Potency, µM (top dose mostly 57.5 µM), without a hit: at the top dose activity change, negative = active; 340,000 tested, 1.9% active; active = well fitted falling curve with a large enough effect; inconclusive = small, poorly fitted or top-dose-only effect; inactive = no such curve, though single readings can be large or run the other way; note: potency is the fitted concentration of half-maximal effect; the source files actives as falling curves though it sought activators and does not explain the sign; nearly all actives have a fitted effect of over 65% in size; many hits overshoot -100%
# Target sequence (P80244 whole entry, looked up): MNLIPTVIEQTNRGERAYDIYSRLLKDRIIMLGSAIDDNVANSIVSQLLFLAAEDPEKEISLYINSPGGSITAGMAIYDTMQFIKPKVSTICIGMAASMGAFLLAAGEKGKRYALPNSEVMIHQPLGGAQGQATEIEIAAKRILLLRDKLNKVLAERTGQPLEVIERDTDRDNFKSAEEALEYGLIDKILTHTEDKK
#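 ClpP 10 microg/mL final, pH 8 Tris/KCl buffer with BSA, glycerol, Tween-20; compound pinned in; FRET-FV substrate; RT 20 min; Ex320/Em430; ΔFRET vs ADEP 5.8 microM, DMSO, no enzyme.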
# TRPV1 PAM: potentiators of human vanilloid receptor 1 (TRPV1); TRPV1-expressing cells, Fluo-8 calcium influx, capsaicin EC20 potentiation; host cell line not named in the record; control for the full effect not named in the record; Q8NER1; potentiation, % at 8.33 µM; 320,000 tested, 0.02% active; active means potentiation above 80%; inconclusive means 30% to 80%; inactive means below 30%; note: 0% is about no effect
# Target sequence (Q8NER1 whole entry, looked up): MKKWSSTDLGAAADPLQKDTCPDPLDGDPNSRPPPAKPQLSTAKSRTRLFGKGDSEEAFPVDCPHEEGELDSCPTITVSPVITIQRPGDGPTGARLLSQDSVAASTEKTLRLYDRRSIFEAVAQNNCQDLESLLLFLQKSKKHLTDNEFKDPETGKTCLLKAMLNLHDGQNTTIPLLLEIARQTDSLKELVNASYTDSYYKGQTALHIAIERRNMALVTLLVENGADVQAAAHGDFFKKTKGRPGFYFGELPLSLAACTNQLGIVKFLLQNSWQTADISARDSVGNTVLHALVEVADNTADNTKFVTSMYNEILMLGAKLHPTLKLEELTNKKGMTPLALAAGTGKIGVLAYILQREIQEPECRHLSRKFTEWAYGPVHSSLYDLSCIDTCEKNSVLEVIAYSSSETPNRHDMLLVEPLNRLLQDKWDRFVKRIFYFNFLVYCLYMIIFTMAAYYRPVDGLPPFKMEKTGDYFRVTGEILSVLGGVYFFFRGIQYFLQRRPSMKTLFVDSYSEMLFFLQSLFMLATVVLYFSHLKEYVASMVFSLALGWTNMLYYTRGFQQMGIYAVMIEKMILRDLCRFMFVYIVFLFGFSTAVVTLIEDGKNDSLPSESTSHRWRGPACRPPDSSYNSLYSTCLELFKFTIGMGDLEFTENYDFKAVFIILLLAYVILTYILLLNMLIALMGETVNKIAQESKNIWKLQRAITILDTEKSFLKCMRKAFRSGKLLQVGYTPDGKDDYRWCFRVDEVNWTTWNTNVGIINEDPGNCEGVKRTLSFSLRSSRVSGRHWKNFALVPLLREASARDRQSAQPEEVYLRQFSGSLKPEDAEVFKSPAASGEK
#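 Fluo-8 calcium influx in TRPV1-expressing cells, kinetic read (ex 480/em 520 nm). Compound added and read 3 min for agonist activity, followed by capsaicin at EC20 final and 2 min further read for enhancement.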
# PINK1 modulator: modulators of PINK1 expression | Potency, µM (titrated, usually from 76.6 µM), for the others: top-dose activation (PINK1 increase), hits mostly activators | 410,000 tested, 0.2% active | AID 624263 | PINK1 immunofluorescence, high-content cytometry, 24 h; active = well fitted activation curve with a large enough effect; inconclusive = small, poorly fitted or top-dose-only effect; inactive = flat fitted curve, though single readings scatter; cell line not stated here;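 note: potency is the fitted concentration of half-maximal effect; % of control where 0% means no effect; nearly all actives have a fitted effect of over 65% in size; a mitochondrial uncoupler was the plate control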
#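 Measures PINK1 amount and localization on or inside mitochondria by immunofluorescence. Stable cells get compounds at 5 concentrations for 24 hours before fixation and staining; CCCP controls included.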
# Sfp inh: Sfp phosphopantetheinyl transferase inhibition. 310,000 tested, 3.5% active. AID 1490. Q9F4F7. Biochemical Sfp PPTase activity, qHTS. Potency, µM, for the others: max response, negative = inhibition, most hits filed as inhibitors; active = well fitted inhibition curve with a large enough effect; inconclusive = small, poorly fitted or top-dose-only effect, or another doubt; inactive = no such curve, though single readings can be large or run the other way;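 note: the enzyme is Sfp with the accession as filed and its product quenches rhodamine fluorescence; potency is the fitted concentration of half-maximal effect; 0% = enzyme reaction without inhibitor and -100% = no enzyme wells; top concentration of the series not given in the record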
#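 Compounds were incubated with enzyme (final 15 nM) for 15 min at room temperature before substrate addition started the reaction. Fluorescence at 525 nm excitation, 598 nm emission was recorded immediately and after 30 minutes.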
# TRPML1 blocker: blocks the human TRPML1 channel; TRPML1-inducible cells, Ca2+ dye fluorescence, FDSS; stronger effect = lower value; inhibition of EC80 agonist-evoked calcium signal; activity change, negative = inhibition, % (test concentration not listed); 390,000 tested, 0.02% active; AID 624415; in the data active means activity change below about -50%; inconclusive means about -30% to -50%; inactive means above about -30%;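 note: stimulus is agonist 54-4 at its EC80 concentration; % is set by controls: 0 for no effect and ±100 for the full control effect; compound concentration not given in the record; the text of the record puts the active cut at -80%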
#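 Calcium fluorescence in TRPML1-DL cells induced overnight with Tet: a 110 s read after compound pin addition, then a 110 s antagonist read after challenge with 54-4 at 4 uM final (EC80).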
# Menin MLL FP FL: menin-MLL binding inhibition, fluorescein peptide | 290,000 tested, under 10 active | Fluorescence polarization, fluorescein-MLL peptide displacement from menin | FP activity change, % at 61.4 µM | AID 1766; inconclusive = falling polarisation curve, or a change in total fluorescence; inactive = total fluorescence flat and polarisation flat or rising; no compound was filed as active; the % refers to the polarisation; negative = inhibition;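 note: % of control where 0% means no effect; inhibitors lower the polarisation; unlabelled MLL peptide was the positive control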
# Numbers without * were called inactive; u = inconclusive; x = not tested or not shown; [ ] = remark or other dose.
no.	smiles	TRPML1 ag	ClpP mod	TRPV1 PAM	PINK1 modulator	Sfp inh	TRPML1 blocker	Menin MLL FP FL
1	CCCCc1nnc(NC(=O)CSc2nc(O)c(Cc3ccccc3)c(=O)[nH]2)s1	2.9	x	u	3.2%	1.5%	-8.1	-0.6
2	Cc1cc(Cn2nc(C(=O)NCc3cccc(Br)c3)cc2-c2ccccc2)on1	4.1	-5.2%	u	0.4%	x	-12.1	x
3	CCN(C(=O)COC(=O)c1ccc(COc2ccc3c(C)cc(=O)oc3c2)cc1)C1CCS(=O)(=O)C1 (stereo not drawn)	-1.0	x	-1.2	-0.6%	11.1%	-6.1	3.5
4	COc1ccc(N(CC(=O)NC2CCCC2)C(=O)CCC(=O)Nc2nc(C)cs2)cc1OC	0.3	x	8.9	-1.1%	19.8%	4.2	8.1
5	Cc1cc(S(=O)(=O)NC(C)C)ccc1OCC(=O)N1CCOCC1	0.1	-2.0%	-1.1	1.8%[38.3 µM]	9.5%	8.3	4.3
6	Cc1cccc(-c2nc(C)c(CCNC(=O)C(=O)Nc3ccc(C)c(C)c3)s2)c1	4.6	0.3%	x	-0.2%	x	30.9	x
7	COCCN(C(=O)COC(=O)/C=C/c1nc2ccccc2s1)c1c(N)n(Cc2ccccc2)c(=O)[nH]c1=O	-0.7	x	-2.7	1.0%	x	2.1	x
8	CC(=O)Nc1cccc(C(=O)Nc2cccc3ncccc23)c1	0.6	x	6.8	1.2%	11.5%	-3.2	5.1
9	CC(C)OC(=O)CSc1nnc(SCc2cccc3ccccc23)s1	2.0	1.3%	1.4	0.6%	1.8%	-7.9	7.3
10	C[C@@H]1[C@H](O)C[C@@]23COC(=O)C2=CCC[C@@H]3[C@@]1(C)CC/C(=C/CO)CO	-0.4	-0.2%	-8.0	2.9%	x	4.8	x
11	COc1ccc(C(=O)CC(=O)C(=O)Nc2cc(C)ccc2C)cc1	1.3	x	18.8	7.5%	21.3%	27.0	7.4
12	CCOC(=O)Nc1sc(C)c(C)c1C(N)=O	-0.4	1.2%	2.8	-2.2%	-13.1%	3.1	0.4
13	COc1cc2c(cc1OC)-c1cc(NCc3ccccn3)nc(=O)n1CC2	-1.0	28.2µM*	3.1	1.2%	20.0%	9.5	-0.2
14	CC(C)NC(=O)C1CCCN(S(=O)(=O)c2cccc3nonc23)C1 (stereo not drawn)	-0.6	x	2.6	-0.5%	13.6%	-23.3	3.4
15	Cc1ccc(S(=O)(=O)N2CCN(c3nc(-c4ccnnc4)nc4ccccc34)CC2)cc1	-0.8	-5.8%	x	1.5%	x	x	x
16	COc1cc(/C=C/C(=O)OCC(=O)NC2CCCCCCC2)ccc1O	2.5	1.2%	x	2.0%	x	28.4	x
17	Cc1cccc(C)c1NC(=O)CNC(=O)CNC(=O)Cc1cccc2ccccc12	0.3	0.7%	7.2	-1.3%	x	-8.0	x
18	COc1ccc(S(=O)(=O)N2CCOCC2)cc1NC(=O)COC(=O)C1CC1C (stereo not drawn)	0.0	-1.7%	0.9	1.6%	x	-4.0	x
19	CCNC(=O)CC1C(=O)N(CC)C(=S)N1NC(=O)c1cccnc1 (stereo not drawn)	-0.6	x	9.7	-0.1%	-19.3%	11.0	2.0
20	CCCOc1ccc(-c2c(C(=O)N/N=C/c3cccs3)nnn2-c2nonc2N)cc1	-0.8	-9.4%	4.7	1.6%	10.8%	1.2	x

# Single records (already shown):
# C[C@@H]1[C@H](O)C[C@@]23COC(=O)C2=CCC[C@@H]3[C@@]1(C)CC/C(=C/CO)CO is entered as TRPML1 ag: -0.4; ClpP mod: -0.2%; TRPV1 PAM: -8.0; PINK1 modulator: 2.9%; Sfp inh: x; TRPML1 blocker: 4.8; Menin MLL FP FL: x
# CCOC(=O)Nc1sc(C)c(C)c1C(N)=O is entered as TRPML1 ag: -0.4; ClpP mod: 1.2%; TRPV1 PAM: 2.8; PINK1 modulator: -2.2%; Sfp inh: -13.1%; TRPML1 blocker: 3.1; Menin MLL FP FL: 0.4

# Part of the list above in order of SMILES length, ascending.
no.	smiles	TRPML1 ag	ClpP mod	TRPV1 PAM	PINK1 modulator	Sfp inh	TRPML1 blocker	Menin MLL FP FL
12	CCOC(=O)Nc1sc(C)c(C)c1C(N)=O	-0.4	1.2%	2.8	-2.2%	-13.1%	3.1	0.4
8	CC(=O)Nc1cccc(C(=O)Nc2cccc3ncccc23)c1	0.6	x	6.8	1.2%	11.5%	-3.2	5.1
9	CC(C)OC(=O)CSc1nnc(SCc2cccc3ccccc23)s1	2.0	1.3%	1.4	0.6%	1.8%	-7.9	7.3
11	COc1ccc(C(=O)CC(=O)C(=O)Nc2cc(C)ccc2C)cc1	1.3	x	18.8	7.5%	21.3%	27.0	7.4
14	CC(C)NC(=O)C1CCCN(S(=O)(=O)c2cccc3nonc23)C1 (stereo not drawn)	-0.6	x	2.6	-0.5%	13.6%	-23.3	3.4
17	Cc1cccc(C)c1NC(=O)CNC(=O)CNC(=O)Cc1cccc2ccccc12	0.3	0.7%	7.2	-1.3%	x	-8.0	x
18	COc1ccc(S(=O)(=O)N2CCOCC2)cc1NC(=O)COC(=O)C1CC1C (stereo not drawn)	0.0	-1.7%	0.9	1.6%	x	-4.0	x
1	CCCCc1nnc(NC(=O)CSc2nc(O)c(Cc3ccccc3)c(=O)[nH]2)s1	2.9	x	u	3.2%	1.5%	-8.1	-0.6
20	CCCOc1ccc(-c2c(C(=O)N/N=C/c3cccs3)nnn2-c2nonc2N)cc1	-0.8	-9.4%	4.7	1.6%	10.8%	1.2	x
4	COc1ccc(N(CC(=O)NC2CCCC2)C(=O)CCC(=O)Nc2nc(C)cs2)cc1OC	0.3	x	8.9	-1.1%	19.8%	4.2	8.1
15	Cc1ccc(S(=O)(=O)N2CCN(c3nc(-c4ccnnc4)nc4ccccc34)CC2)cc1	-0.8	-5.8%	x	1.5%	x	x	x
3	CCN(C(=O)COC(=O)c1ccc(COc2ccc3c(C)cc(=O)oc3c2)cc1)C1CCS(=O)(=O)C1 (stereo not drawn)	-1.0	x	-1.2	-0.6%	11.1%	-6.1	3.5
10	C[C@@H]1[C@H](O)C[C@@]23COC(=O)C2=CCC[C@@H]3[C@@]1(C)CC/C(=C/CO)CO	-0.4	-0.2%	-8.0	2.9%	x	4.8	x
7	COCCN(C(=O)COC(=O)/C=C/c1nc2ccccc2s1)c1c(N)n(Cc2ccccc2)c(=O)[nH]c1=O	-0.7	x	-2.7	1.0%	x	2.1	x

# Carrying on:
no.	smiles	TRPML1 ag	ClpP mod	TRPV1 PAM	PINK1 modulator	Sfp inh	TRPML1 blocker	Menin MLL FP FL
21	CCc1ccccc1NC(=O)Cn1c(=O)n(Cc2ccc3c(c2)OCO3)c(=O)c2ccc(C(=O)NC3CCCCC3)cc21	0.8	0.2%	x	22.0%	x	-3.2	x
22	COc1ccc(OC)c(CN2CCN(C(=O)c3cccc(S(=O)(=O)N(C)c4ccccc4)c3)CC2)c1	1.2	-1.0%	x	0.7%	x	42.5	x
23	CCc1ccc(NC(=O)Cn2cnc([N+](=O)[O-])c2)cc1	1.2	-1.1%	4.1	-3.8%	0.3%	-5.9	-0.4
24	CC(C)(C)n1nnnc1C(c1ccc(C#N)cc1)N1CCCC2(CCCCC2)C1 (stereo not drawn)	8.0	-1.0%	2.0	-4.9%[38.3 µM]	0.0%	0.7	2.2
25	COCCNC(=O)C1(C)CCCN(Cc2ccc(C)c3ccccc23)C1 (stereo not drawn)	-0.3	-2.9%	x	0.7%	x	x	x
26	O=C(Nc1cccnc1)c1ccc(Cl)c(S(=O)(=O)N2CCOCC2)c1	-0.3	x	-35.3	-1.7%	0.4%	3.2	1.3
27	CCNS(=O)(=O)c1cc(OC)ccc1OC	-0.5	-2.2%	10.8	x	6.4%	13.8	6.3
28	c1ccc(NNC2=NCCCCC2)cc1	0.0	-2.4%	-4.9	2.4%	13.2%	0.2	0.9
29	Cc1ccc(S(=O)(=O)c2nc(-c3ccccc3)oc2NCCN2CCOCC2)cc1	-0.5	-2.3%	u	-1.4%	-9.0%	-2.6	4.0
30	COc1cccc(CC2(CO)CCCN(Cc3cnn(-c4ccccc4)c3)C2)c1 (stereo not drawn)	0.8	-0.6%	-0.4	0.8%	-5.7%	24.8	1.5
31	O=C(c1ccc(S(=O)(=O)c2ccccc2)cc1)N1CCCCCC1	0.0	-1.8%	-18.6	0.7%	-3.6%	-5.3	2.3
32	CCN(C(=O)COC(=O)C(C)(C)Oc1ccc(Cl)cc1)c1c(N)n(Cc2ccccc2)c(=O)[nH]c1=O	-0.2	-0.7%	x	15.3%	x	2.1	x
33	COCCN(C(=O)CN1CCCc2ccccc21)c1c(N)n(Cc2ccccc2)c(=O)[nH]c1=O	0.8	-3.4%	3.0	-1.0%	-18.0%	18.9	u
34	CC1(C(=O)Nc2cccc3c2CCCC3)CCN1C(=O)C1(c2ccccc2)CC1 (stereo not drawn)	0.2	1.2%	x	0.7%	x	61.2	x
35	CNC(=S)NNC(=O)c1cccc(N(C)C)c1	0.3	x	-3.3	0.0%	17.1%	38.4	-0.5
36	Cc1ccc(NC(=O)c2ccc3c(c2)CCN3S(C)(=O)=O)cc1C	0.0	x	-17.4	4.2%	16.5%	-16.6	0.0
37	CC1=CC(C)(C)N(C(=O)CSc2nnc(N)s2)c2cc(C)c(C)cc21	0.2	-0.9%	-16.4	1.1%[38.3 µM]	27.7%	0.0	-0.1
38	COc1cc2ccccc2cc1C(=O)N1CCCCC1	0.0	x	-11.9	2.0%	x	2.0	x
39	COCCNCCCCOc1ccccc1-c1ccccc1	-1.6	0.9%	9.9	0.5%	22.7%	-4.0	3.6
40	CN(Cc1cccc(F)c1)C(=O)C(c1ccccc1)c1ccccc1	3.0	0.4%	-1.2	0.2%	7.3%	38.8	4.2
41	O=C(O)/C=C/c1cccc(NC(=O)Nc2ccc([N+](=O)[O-])cc2)c1	0.3	-1.8%	-4.2	-0.2%	0.1%	-11.1	-27.1
42	COc1ccccc1N=CC1=C(O)CC(c2ccccc2)CC1=O (stereo not drawn)	2.1	x	-3.3	-0.4%	9.0%	8.5	1.8
43	COc1cc(C=Nc2c(C)cc(C)cc2C)ccc1OC(C)=O	-0.6	-2.2%	-7.2	0.7%	-13.1%	-15.9	0.0
44	O=S(=O)(c1ccc2nc(Cc3ccccc3)[nH]c2c1)N1CCOCC1	0.7	-1.0%	-16.0	-1.1%[38.3 µM]	4.7%	-1.4	2.5
45	Cc1cc(C)n(-c2ncc(-c3ccccc3)nn2)n1	3.5	1.2%	3.4	-2.6%	5.9%	17.7	-1.3
46	Cc1ccccc1CNC(=O)Cc1csc2ccccc12	0.5	0.3%	x	2.4%	x	-2.0	x

# Outcome played no part in choosing rows; overall some 4.4% were active at least once.
